CSC inhib = blocks cancer stem cells; cancer stem cell-like cells viability, luminescence; inhibition, % at 7.5 µM; actives 1.1% (n = 300,000);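 active = mean at 75% or more and at least half the replicates too; inconclusive = mean and replicates disagree; tested in HMLE shEcad cells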;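 note: 0% = median of negative and 100% = median of positive control wells; the first replicate is given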
MT1-MMP act inh = blocks activation of human MT1-MMP. actives 0.061% (n = 360,000). GFP/RFP ratio change, % at 20 µM. P50281. HT1080 RFP-PRO-GFP cells, GFP/RFP ratio fluorescence, overnight; percent of plate control window, DMSO zero. AID 651647;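 active = GFP/RFP ratio change of at least 30% with cell ATP level not reduced by more than half and red fluorescence within 50% of control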; note: strong numbers were not always called active
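Assay system: HT1080 cells carrying an RFP-PRO-GFP reporter | Dosing: Single dose of 20 µM compound, 1% DMSO final | Incubation: Cells overnight before dosing, compound overnight, 37 °C, 5% CO2 | Evaluation: GFP/RFP fluorescence ratio | Control set: DMSO and RFP-L50D-GFP cell wells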
HIV Env fusion = blocks HIV Env-driven cell-cell fusion; HeLa-JRFL Env/CEM21 cell fusion, luciferase; inhibition, % at 12.3 µM; actives 1.1% (n = 360,000); AID 651610;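 active = mean replicate inhibition score of at least 50 and every replicate individually at or above 50; inconclusive = only one of the two criteria met; inactive = mean below 50 and not all replicates reaching 50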;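 note: 0% = plate neutral controls and 100% = maraviroc near 300 nM; one replicate is shown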
UUG fidelity = yeast start codon fidelity modulation; S. cerevisiae UUG-firefly luciferase reporter, luminescence/redox ratio; activity score, % at 18.7 µM; actives 0.13% (n = 350,000);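 active = replicate mean at a twofold rise or more, about +100% in these data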;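 note: firefly luciferase made from a UUG start codon reports start codon fidelity; reporter light over untreated wells divided by growth signal over untreated wells; some hits fall short of that in this replicate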
Rce1 inh = inhibitors of yeast Ras-converting enzyme; Q03530; yeast membranes, quenched prenylated peptide cleavage fluorescence; calls only; actives 0.27% (n = 290,000); AID 2563;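 active = fall in fluorescence gain of 50% or more versus controls, with final raw signal at or below 3038400; inconclusive = same 50% fall but final raw signal above 3038400; inactive = fall in fluorescence gain under 50%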;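 note: plate controls were neutral control wells for no effect and wells lacking membranes for full effect; tested at 10 µM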
Target sequence (Q03530 whole entry, looked up): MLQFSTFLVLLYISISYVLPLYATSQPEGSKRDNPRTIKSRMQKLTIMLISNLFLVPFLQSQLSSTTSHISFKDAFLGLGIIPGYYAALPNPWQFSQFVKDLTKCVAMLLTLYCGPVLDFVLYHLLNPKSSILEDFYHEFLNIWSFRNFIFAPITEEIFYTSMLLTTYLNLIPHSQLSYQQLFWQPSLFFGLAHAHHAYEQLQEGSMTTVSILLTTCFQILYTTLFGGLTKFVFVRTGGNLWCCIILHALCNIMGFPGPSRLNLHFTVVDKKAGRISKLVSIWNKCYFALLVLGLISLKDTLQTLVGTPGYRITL
eIF4H FP inh = inhibitors of RNA binding by human eIF4H. Q15056. eIF4H fluorescence polarization binding assay. inhibition, % at 35 µM. actives 0.94% (n = 290,000);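 active = 50% or more with normal probe brightness, or confirmed in later tests; inconclusive = above 50% with abnormal brightness, or retests that disagree; inactive = below 50% or failed in later tests; about a fifth of its hits are not listed in these tables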;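 note: calls also rest on retests at 20 µM and on dose response follow-up; 0% = protein and probe with vehicle and 100% = probe without protein; strong numbers were not always called active; many hits fall short of the cut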
PABP FP inh = PABP-poly(A) binding inhibition; P11940; PABP-poly(A) RNA binding, fluorescence polarization; inhibition, % at 35 µM; actives 1% (n = 290,000); AID 2014;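 active = 50% or more with normal probe brightness, or confirmed in later tests; inconclusive = above 50% with abnormal brightness, or retests that disagree; inactive = below 50% or failed in later tests; about a fifth of its hits are not listed in these tables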;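 note: calls also rest on retests at 20 µM and on dose response follow-up; controls were probe without protein and protein plus probe with vehicle; some compounds called inactive have numbers as strong as hits; many hits fall short of the cut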
Target sequence (P11940 whole entry, looked up): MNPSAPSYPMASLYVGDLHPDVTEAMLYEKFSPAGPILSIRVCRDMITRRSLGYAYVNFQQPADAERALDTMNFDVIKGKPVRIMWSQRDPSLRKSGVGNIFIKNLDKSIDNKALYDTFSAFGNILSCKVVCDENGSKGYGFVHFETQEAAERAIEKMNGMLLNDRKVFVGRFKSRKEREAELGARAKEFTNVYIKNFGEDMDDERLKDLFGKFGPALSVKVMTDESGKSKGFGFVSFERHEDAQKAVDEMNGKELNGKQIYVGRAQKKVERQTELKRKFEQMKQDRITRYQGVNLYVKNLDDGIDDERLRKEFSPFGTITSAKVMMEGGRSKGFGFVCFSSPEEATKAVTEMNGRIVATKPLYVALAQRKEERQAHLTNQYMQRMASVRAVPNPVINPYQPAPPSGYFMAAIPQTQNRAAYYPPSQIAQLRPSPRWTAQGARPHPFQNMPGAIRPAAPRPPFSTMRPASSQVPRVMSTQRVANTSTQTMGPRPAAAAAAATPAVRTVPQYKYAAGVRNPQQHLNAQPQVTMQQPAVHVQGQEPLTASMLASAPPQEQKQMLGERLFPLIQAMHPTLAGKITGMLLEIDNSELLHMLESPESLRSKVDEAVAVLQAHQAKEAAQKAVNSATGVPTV
eIF4H FP inh retest = second read-out of eIF4H FP inh, no call of its own (marks repeat the call); inhibition, %; compound at 20 µM; confirmation average;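 mean of two retest wells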
PABP FP inh retest = recorded beside PABP FP inh, whose call it bears; inhibition, %; compound at 20 µM; confirmation repeats;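 mean of two retest wells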
MT1-MMP act inh RFP = further read-out of MT1-MMP act inh, marked with its call; RFP signal change, %; measured here: RFP expression control read;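 0 = vehicle wells; hits needed this value within 50% of zero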
The depositor's hits bear a star; i = inactive; ? = inconclusive; . = not tested or not shown.

SMILES	CSC inhib	MT1-MMP act inh	MT1-MMP act inh RFP	HIV Env fusion	UUG fidelity	Rce1 inh	eIF4H FP inh	PABP FP inh	others
CC(C)n1nccc1NC(=O)COC(=O)c1ccc(NC(N)=O)cc1	-4	-3	3	-4	-16	.	.	.
Nc1ccc(N2CCCCC2)c(S(=O)(=O)Nc2ccccc2Cl)c1	1	-12	-14	20	-22	i	-7	-1
O=C1CCCCC1Oc1ccc2ccc(=O)oc2c1 (stereo not given)	-13	-1	4	-12	-17	i	-2	5
CCN=c1scc(-c2cccs2)n1/N=C/c1cc(OC)ccc1O	71	3	-20	14	.	.	-18	-7
Cc1ccc(OCCN2CCNCC2)c([N+](=O)[O-])c1	-15	0	3	11	1	i	5	-12
CCCc1nnc(NC(=O)c2cccnc2)s1	-19	2	3	1	-14	i	-7	7
CC(=O)CCC(=O)N1CCCC(N2CCN(c3cccc(Cl)c3)CC2)C1 (stereo not given)	5	-1	1	-4	-21	i	-7	2
CC1=NN(C(=O)c2ccc(Cn3nc(C)c([N+](=O)[O-])c3C)o2)C(O)(C(F)(F)F)C1 (stereo not given)	8	9	2	9	-9	i	-8	8
COc1cc(OC)nc(-n2ncc(OC)c(Br)c2=O)n1	-1	-4	-2	-36	-21	i	1	6
CCOc1ncccc1C(=O)N=c1sccn1C	-13	-3	1	7	-16	i	-7	16
CCc1ccccc1NC(=S)N1CCN(c2ccccn2)CC1	-8	0	-1	13	.	i	1	0
COc1ccc(-n2nnnc2-c2ccccc2)cc1	.	0	-12	35	-12	i	-4	-3
O=C(CN1CCN(Cc2ccc3c(c2)OCO3)CC1)Nc1ccc(F)cc1	-1	2	1	-43	-15	i	-6	-6
O=C1NCCN(Cc2c(F)cccc2Cl)C1CC(=O)N1CCCCO1 (stereo not given)	-12	0	-1	-22	.	i	-6	0
Cc1ccc(C)c(NC(=S)N2CCC(N(C)CC3CCCO3)CC2)c1 (stereo not given)	-1	0	2	.	-23	i	3	-4
O=C1c2cccnc2C(=O)N1Cc1ccc(F)cc1S(=O)(=O)NCc1ccco1	-18	1	5	0	6	i	-10	-5
CCSc1nnc(NC(=O)c2ccc(C)o2)s1	9	-2	4	-140	-21	i	-4	3
CS(=O)(=O)c1ccc2nc(NC(=O)Cc3ccccc3)sc2c1	-12	-5	-1	22	-17	i	-2	-7
COc1ccc(Nc2c(-c3ccc(C)cc3)nc3cnccn23)cc1	0	2	-5	16	.	i	7	-3
CCCSc1nc2sc3c(c2c(=O)n1-c1ccc(OC)cc1)CCN(C)C3	.	-1	2	-14	-7	i	-7	2
Cc1ccc(S(=O)(=O)N2C[C@H]3C(=O)C[C@@H](c4ccccc4)N(S(=O)(=O)c4ccc(C)cc4)[C@H]3C[C@H]2c2ccccc2)cc1	.	-3	-3	-17	-19	.	.	.
CCCn1nnnc1NCc1c(Cl)cccc1Cl	-7	7	4	-1	.	i	-6	-8
C#CCOc1ccc(OC)cc1C(c1c(C)[nH][nH]c1=O)c1c(C)[nH][nH]c1=O	-9	-3	4	.	-10	i	-14	-13
CC1=C2C3OC(=O)C(C)C3CCC2(C)C=C(Br)C1=O (stereo not given)	.	-1	-5	-2	-17	.	.	.
COCCCNC(=O)c1cccn2c(=O)c3cc4ccccc4cc3nc12	14	-178	-15	-345	-8	i	20	67*
CN(C(=O)COC(=O)COc1ccc2ccccc2c1)c1c(N)n(Cc2ccccc2)c(=O)[nH]c1=O	.	7	4	16	-3	.	.	.
O=C(Cc1ccc(-n2c(=S)[nH]c3ccccc3c2=O)cc1)N1CCC(N2CCCCC2)CC1	-1	-1	-4	-14	0	i	3	-6
CN(c1cccc(NC(=O)COc2ccccc2)c1)S(C)(=O)=O	-9	1	1	11	-17	i	-4	-2
O=C(OCC#CCSc1nnc(-c2cccc3ccccc23)o1)c1ccc(F)cc1	.	5	3	-38	-20	.	.	.
COC(=O)CN1C(=O)C2(OCCCO2)c2cc(Br)ccc21	-3	-5	-1	6	6	i	-8	-3
CC(C)CN(C(=O)COC(=O)c1cc2c(s1)CCC2)C1CCS(=O)(=O)C1 (stereo not given)	-12	-1	4	12	15	i	86*	22*	eIF4H FP inh retest=79*;PABP FP inh retest=69*
COc1ccc(S(=O)(=O)n2ccc(-c3ccc(OCCN(C)c4ccccn4)cc3)n2)cc1	-12	0	-13	75*	-9	i	-8	-3
COc1ccc(OCC(O)CN2CCN(c3ccc(OC)cc3)CC2)cc1 (stereo not given)	2	2	5	0	1	i	0	-8
O=c1oc2ccccc2c(Nc2ccccc2)c1CN1CCCCC1	18	3	1	-45	-18	i	5	-8
CSc1nnc(C(C)(C)C)c(=O)n1/N=C/c1ccccc1	-4	7	4	-10	-1	i	-4	-9
NC(=O)c1ccsc1NC(=O)COC(=O)C1=NNC(=O)CC1	.	5	2	4	-27	.	.	.
CC(C)N1CCc2c(sc(NC(=O)Cc3ccccc3)c2C(N)=O)C1	-2	-1	1	-8	-9	i	5	-16
COc1ccc(CNC(=O)NCc2ccc(OC)c(OC)c2)cc1OC	-6	0	8	-42	-10	i	-4	-4
Cc1ccc(-c2nc(S(=O)(=O)c3ccc(C)cc3)c(N(C)C)o2)cc1	-9	-8	-6	-10	-15	i	5	4
COc1ccc2oc(C)c(C(=O)NN)c2c1	.	0	-2	.	-11	i	-6	-13
COc1ccc(CNC(=O)c2cccc(S(=O)(=O)N3CCN(C)CC3)c2)cc1	4	0	-1	15	.	i	3	-9
COC(=O)C1=C(C)NC(=S)N(C(C)=O)C1c1ccc(OC)c(OC)c1 (stereo not given)	0	1	6	-26	.	.	13	18
CC(C)(C)c1ccc(-c2c(C(=O)O)c(C(=O)O)c3n2CSC3)cc1	-5	-7	-3	-7	-27	i	1	-3
Cc1csc(SCC(=O)N(C)C2CCS(=O)(=O)C2)n1 (stereo not given)	.	3	3	0	-2	.	.	.
CN(c1ccc(C(=O)Nc2cccc(O)c2)cc1)S(=O)(=O)c1ccccc1	8	7	-7	0	-4	i	-11	-9
C=CCSc1nc2sc(C)c(C)c2c(=O)n1CC=C	37	0	3	-64	-7	i	-1	11
O=C(CCNC(=O)C1CCN(S(=O)(=O)c2ccccc2)CC1)NCc1ccncc1	-10	2	4	2	8	i	.	.
CCOC(=O)c1c(-c2ccccc2)cn2ccccc12	3	-3	-3	.	-3	i	1	7
O=C(c1ccc(Sc2ccccc2)c([N+](=O)[O-])c1)N1CCOCC1	31	2	1	17	5	i	3	5
CN(NC(=O)C1CC(=O)N(c2ccccc2)C1)C1=NS(=O)(=O)c2ccccc21 (stereo not given)	-16	1	0	-9	.	i	-4	-8
O=C(Nc1ccc(NC(=O)c2cccs2)cc1)c1cccs1	-5	1	1	-29	-5	i	-5	5
COCCCNC(=O)CN1C(=O)/C(=C\c2ccc(C)cc2)Sc2ccccc21	2	4	-1	-7	.	i	-6	5
Cc1ccc(NC(=O)CSCC(=O)Nc2ncc3c(n2)CC(c2ccco2)CC3=O)cc1 (stereo not given)	-27	-4	6	-30	4	i	35	23
COc1ccc2nc(SCC(=O)NCC(F)(F)F)[nH]c2c1	11	-2	7	13	.	i	0	18
CCOC(=O)N1CCN(c2ncnc3c2oc2nc(C(C)C)c4c(c23)CCC4)CC1	56	-2	1	-17	-19	.	0	-8
COCCNC(=O)/C(C#N)=C/c1ccc(OCc2ccc(F)cc2)cc1	-13	-1	-4	6	.	i	3	12
COc1ccc(OCC(O)CNS(=O)(=O)c2cccs2)cc1 (stereo not given)	-6	1	0	-6	4	i	-2	5
CCOc1ccc(C2C=C(c3ccc(C)cc3)Nc3nnnn32)cc1 (stereo not given)	14	-200	-1	-12	.	i	-4	2
COC(=O)NC1c2ccccc2Oc2ccccc21	2	2	4	0	-1	i	0	4
COc1ccc(OCC(O)CN2CCNCC2)cc1 (stereo not given)	-18	-2	-1	19	-15	i	-8	11
(listing goes on)
SMILES	CSC inhib	MT1-MMP act inh	MT1-MMP act inh RFP	HIV Env fusion	UUG fidelity	Rce1 inh	eIF4H FP inh	PABP FP inh	others
Cc1noc(NS(=O)(=O)c2ccc(N/C=C\C(=O)c3cccs3)cc2)c1C	-18	1	3	-4	.	i	-8	6
CCCCCOc1ccc(NC(=O)CSc2cccc3cccnc23)cc1	18	-2	1	10	.	i	-6	-15
CCOC(=O)C1(CCOc2ccccc2)CCN(Cc2ccc(O)cc2)CC1	.	.	.	6	-21	i	5	5
CNc1nc(N)c([N+](=O)[O-])c(Nc2cccc(F)c2)n1	12	4	4	0	-5	i	0	-2
CC(C)C[C@H]1CNC(=S)N1CC1CCCN1C[C@H](Cc1ccccc1)N1C[C@H](Cc2ccccc2)N(CC2CCCCC2)C1=S (stereo not given in full)	.	-5	-16	-76	-12	.	.	.
O=C(N/N=C/c1cccnc1)c1ccc2ccccc2c1O	-8	-1	1	-10	-19	i	-8	-1
Cc1ccc2c(CC(=O)NC3CCCc4ccccc43)coc2c1 (stereo not given)	12	-7	-6	-13	-2	i	-10	-4
CCOc1ccc(OCCn2c(=S)[nH]c3ccccc32)cc1	-16	9	-1	-25	-15	i	0	4
Cn1c(=S)[nH]c2sc3c(c2c1=O)CCC(C(C)(C)C)C3 (stereo not given)	49	-2	-9	-18	.	i	6	13
NC(=O)c1ccsc1NC(=O)COC(=O)Cc1ccsc1	-1	1	8	30	-22	.	1	-2
Cc1cccc(NC(=O)CN2CCN(CC(=O)NCc3ccc(Cl)cc3Cl)CC2)c1C	.	11	-6	-5	-11	.	.	.
CCOc1ccc(N2C(=O)CC(N(CCc3ccc(OC)cc3)C(=O)/C=C/C(=O)O)C2=O)cc1 (stereo not given)	-12	-10	2	-2	7	i	-7	-4
C/C(=N\NC(=S)NC1CCCCC1)c1ccc(O)cc1	25	1	-4	-12	-32	i	-9	-1
c1ccc(Nc2ccccc2Nc2ccccn2)nc1	.	0	6	.	.	i	?	-10
COc1ccc(-c2cc(CNS(=O)(=O)c3ccc(F)cc3)on2)cc1	17	5	-7	24	-3	i	1	4
CC1CCCN(C(=O)c2ccc(Cl)c(S(=O)(=O)N3CCCCCC3)c2)C1 (stereo not given)	-6	-3	-19	-11	-2	.	.	.
Cc1ccc(N2CCN(CCc3nc4cc(NS(C)(=O)=O)ccc4n3C)CC2)cc1	-3	3	0	30	-17	i	-13	-7
Cn1c(=O)c2c(nc(N3CCCCC3)n2CCCNC2=NCCCC2)n(C)c1=O	.	-5	2	.	-29	i	-4	7
CCOC(=O)C1(CCOC)CCN(Cc2cccc(OCc3ccccc3)c2)CC1	5	7	0	-11	-22	i	-5	-3
